Source: PubChem (National Center for Advancing Translational Sciences (NCATS))
D2 agonist = Beta-Arrestin HTS for Positive Allosteric Modulators of the Human D2 Dopamine Receptor: Agonists | D(2) dopamine receptor (Homo sapiens), P14416 | DiscoveRx PathHunter D2 beta-arrestin, luminescence, 90 min; 100% = 57 uM dopamine signal | activation, % (no concentration beside the values) | 360,000 compounds, 0.084% hits | AID 624465, 2012; in the data active = activation above about 40%; inconclusive = about 15% to 40%; inactive = below about 15%; also: compound concentration not given in the record; the text of the record calls up to 30% inactive
Target sequence (P14416 whole entry, looked up): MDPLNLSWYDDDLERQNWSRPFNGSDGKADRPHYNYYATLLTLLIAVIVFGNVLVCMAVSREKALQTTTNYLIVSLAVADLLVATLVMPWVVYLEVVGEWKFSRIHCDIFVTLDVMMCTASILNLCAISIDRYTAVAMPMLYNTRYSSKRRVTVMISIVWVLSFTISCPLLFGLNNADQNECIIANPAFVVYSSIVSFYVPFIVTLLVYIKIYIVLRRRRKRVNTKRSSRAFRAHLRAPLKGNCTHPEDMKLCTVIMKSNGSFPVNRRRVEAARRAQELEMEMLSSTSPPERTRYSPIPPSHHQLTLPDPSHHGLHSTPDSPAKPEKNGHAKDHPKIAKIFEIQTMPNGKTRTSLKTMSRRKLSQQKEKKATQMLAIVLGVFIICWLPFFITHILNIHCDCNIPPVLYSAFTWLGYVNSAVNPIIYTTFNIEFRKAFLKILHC
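Agonist mode: compounds alone added to overnight-plated D2 PathHunter cells for 90 min at 37 C, with 57 uM final dopamine (EC100) defining full response. Beta-arrestin recruitment detected by chemiluminescent reagent, read after 1 h at ambient temperature.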
PINK1 expr mod = A Quantitative High throughput Screen to Identify Chemical Modulators of PINK1 Expression; Potency, µM (top dose mostly 76.6 µM), inactives show at the highest dose activation (PINK1 increase), hits mostly activators; 410,000 compounds, 0.2% hits; PINK1 immunofluorescence, high-content cytometry, 24 h; active = well fitted activation curve with a large enough effect; inconclusive = small, poorly fitted or top-dose-only effect; inactive = flat fitted curve, though single readings scatter; cell line not stated here;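 also: potency is read from the fitted curve at half-maximal effect; % of control where 0% means no effect; nearly all actives have a fitted effect of over 65% in size; a mitochondrial uncoupler was the plate control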
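Stable cell line treated 24 h with compounds at 5 concentrations (CCCP controls), then fixed and immunostained for PINK1 plus nuclear and cell stains; PINK1 immunofluorescence quantified by laser-scanning microplate cytometry.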
D2 PAM = Beta-Arrestin HTS for Positive Allosteric Modulators of the Human D2 Dopamine Receptor: Potentiators; potentiation, % (test concentration not listed); 360,000 compounds, 0.23% hits; DiscoveRx D2 beta-arrestin cells, luminescence, 90 min; 100% = 57 uM dopamine signal; D(2) dopamine receptor (Homo sapiens), P14416; AID 624464, 2012; active = potentiation of 50% or more; inconclusive = 30% to 50%; inactive = 30% or less;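 also: compound concentration not given in the record; tested on top of an EC20 dose of dopamine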
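PathHunter beta-arrestin assay in DiscoveRx D2 cells. Compounds were added with an EC20 of dopamine (50 nM final) for 90 min at 37 deg C. Luminescence was read 1 h after detection reagent, with 57 uM dopamine as the EC100 control.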
TRPML1 ag = qHTS for Agonists of the Human Mucolipin Transient Receptor Potential 1 (TRPML1) | TRPML1-expressing cells, Ca2+ dye fluorescence, FDSS; host cell line not named in the record; reference of the full effect not given here | activation, % (no concentration beside the values) | 410,000 compounds, 0.12% hits | AID 624414, 2012; in the data active = activation above about 50%; inconclusive = about 30% to 50%; inactive = below about 30%; also: 0% is about no effect; the text of the record puts the active cut at 80%
Target sequence (Q9GZU1 whole entry, looked up): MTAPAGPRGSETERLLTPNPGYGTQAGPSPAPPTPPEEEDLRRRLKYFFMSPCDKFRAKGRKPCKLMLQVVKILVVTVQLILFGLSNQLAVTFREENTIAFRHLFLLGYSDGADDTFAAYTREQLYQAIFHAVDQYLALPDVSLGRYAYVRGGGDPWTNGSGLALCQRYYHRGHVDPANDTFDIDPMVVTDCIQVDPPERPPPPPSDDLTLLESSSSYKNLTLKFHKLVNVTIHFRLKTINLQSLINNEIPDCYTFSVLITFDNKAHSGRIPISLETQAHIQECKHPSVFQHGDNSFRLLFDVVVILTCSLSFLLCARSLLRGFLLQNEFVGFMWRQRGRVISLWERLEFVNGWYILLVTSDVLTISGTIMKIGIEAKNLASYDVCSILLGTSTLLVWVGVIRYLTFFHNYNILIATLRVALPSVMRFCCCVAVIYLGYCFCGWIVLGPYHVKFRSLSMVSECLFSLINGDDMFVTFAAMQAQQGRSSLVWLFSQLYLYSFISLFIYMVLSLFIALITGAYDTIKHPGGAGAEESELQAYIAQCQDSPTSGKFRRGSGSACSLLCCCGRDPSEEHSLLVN
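Cells: TRPML1-DL, 1X Tet inducer, ~16 h at 37 degrees C/5% CO2. Dye: ABD Ca8 no-wash + quencher, 45-90 min RT. Read: 10 s baseline, compound add, 110 s agonist phase; 54-4 EC80 (4uM final), 110 s antagonist phase.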
TRPML1 blocker = qHTS for Inhibitors of the Human Mucolipin Transient Receptor Potential 1 (TRPML1); 390,000 compounds, 0.02% hits; Mucolipin-1 (Homo sapiens), Q9GZU1; TRPML1-inducible cells, Ca2+ dye fluorescence, FDSS; active compounds read low; inhibition of EC80 agonist-evoked calcium signal; activity change, negative = inhibition, % (test concentration not listed); in the data active means activity change below about -50%; inconclusive means about -30% to -50%; inactive means above about -30%;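 also: stimulus is agonist 54-4 at its EC80 concentration; % is scaled to controls: 0 for no effect and ±100 for the full control effect; compound concentration not given in the record; the text of the record puts the active cut at -80%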
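Tet-induced TRPML1-DL cells loaded with Ca8 no-wash calcium dye were read kinetically on FDSS. Compound addition was followed by EC80 agonist 54-4 (4 uM final); inhibition was read over 110 s.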
Six1-Eya2 blk = qHTS Assay for Inhibitors of the Six1/Eya2 Interaction | AID 651725, 2012 | Homeobox protein SIX1 (Homo sapiens) + Protein phosphatase EYA2 (Homo sapiens), … | activity change, % (no concentration beside the values) | 360,000 compounds, 0.56% hits | AlphaScreen GST-Six1/His-Eya2 binding, biochemical; active compounds read low; control for the full effect not named in the record; in the data active = activity change below about -65%; inconclusive = about -30% to -65%; inactive = above about -30%; also: % is scaled to controls: 0 for no effect and ±100 for the full control effect
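Compounds are tested against tagged Six1 and Eya2 proteins bridged by glutathione donor and nickel acceptor beads; after a one-hour incubation at 37 °C without light, AlphaScreen emission is recorded.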
* = called active by the depositor; ? = inconclusive; . = no result given; & = joins results of further samples. An excerpt; rates above refer to the full screens.

1	Nc1ncnc2nc[nH]c12
2	Cc1ccc(Nc2nc3ccccc3c3nnc(C)n23)c(C)c1
3	O=C(O)CNC(=O)c1ccccc1
4	COc1ccc(OCC(=O)Nc2cc(-c3nc4ccccc4s3)ccc2C)cc1
5	COC(c1ccccc1)(c1ccccc1)C(Oc1nc(C)cc(C)n1)C(=O)O (configuration not stated)

Compound	1	2	3	4	5
D2 agonist	1.9&-1.6&-5.4	.	-8.0	.	2.5
PINK1 expr mod	0.7%&2.0%&0.7%	-1.2%	-0.2%	5.2%	-0.3%
D2 PAM	1&-1&-10	.	8	.	5
TRPML1 ag	-0.8&0.0	2.5	-0.2	1.4	0.0
TRPML1 blocker	22&1	8	35	11	13
Six1-Eya2 blk	4&-1&7	.	2	.	4

An excerpt of these results, with bars between the fields.
# | mol | D2 agonist | PINK1 expr mod | D2 PAM | TRPML1 ag | TRPML1 blocker | Six1-Eya2 blk
3 | O=C(O)CNC(=O)c1ccccc1 | -8.0 | -0.2% | 8 | -0.2 | 35 | 2
1 | Nc1ncnc2nc[nH]c12 | 1.9&-1.6&-5.4 | 0.7%&2.0%&0.7% | 1&-1&-10 | -0.8&0.0 | 22&1 | 4&-1&7
5 | COC(c1ccccc1)(c1ccccc1)C(Oc1nc(C)cc(C)n1)C(=O)O (configuration not stated) | 2.5 | -0.3% | 5 | 0.0 | 13 | 4
4 | COc1ccc(OCC(=O)Nc2cc(-c3nc4ccccc4s3)ccc2C)cc1 | . | 5.2% | . | 1.4 | 11 | .

(listing goes on)
6	CC(=O)Nc1ccccc1
7	COc1c(O)cc2c(c1O)[C@@H]1O[C@H](CO)[C@@H](O)[C@H](O)C1OC2=O (some centres not stated)
8	C=C1c2cccc(O)c2C(O)=C2C(=O)[C@]3(O)C(O)=C(C(N)=O)C(=O)[C@@H](N(C)C)[C@@H]3[C@@H](O)[C@H]12
9	CC12CCC(=O)C=C1CCC1C2CCC2(C)C1CC[C@]2(O)C(=O)CO (some centres not stated)
10	Cc1ccnc(NC(c2cccc(O)c2)c2ccc3ccc(C)nc3c2O)c1 (configuration not stated)

Compound	6	7	8	9	10
D2 agonist	-5.0	-6.8	-4.0	-4.1	.
PINK1 expr mod	0.9%	4.7%	-0.7%	7.2%	-0.8%
D2 PAM	3	-4	-22	6	.
TRPML1 ag	-0.6	-0.4	.	1.0	3.2
TRPML1 blocker	10	7	.	-6	-6
Six1-Eya2 blk	0	4	?	-1	.

11	Cc1cccc(NC(c2ccccc2F)c2ccc3ccc(C)nc3c2O)n1 (configuration not stated)
12	COc1ccc2ccc(=O)oc2c1
13	COc1ccc2nc(NC(=O)Nc3ccccc3)sc2c1
14	Cc1cc(C)cc(OCC2CNC(=O)O2)c1 (configuration not stated)
15	CNc1c2c(nn1C)CCCC2

Compound	11	12	13	14	15
D2 agonist	.	-2.4	2.0	-1.9	-4.7&-3.1
PINK1 expr mod	0.4%	0.5%	4.5%	1.2%	-1.9%&2.8%
D2 PAM	.	-10	-6	4	-1&-1
TRPML1 ag	-0.3	.	1.1	-0.6	0.6&-0.6
TRPML1 blocker	-7	.	-7	-5	?
Six1-Eya2 blk	.	2	-2	1	11&-3

16	COc1ccc(-n2[nH]c3c(cnc4ccccc43)c2=O)cc1
17	NC(N)=NC(=O)Cc1c(Cl)cccc1Cl
18	COc1c(O)cc2c(c1O)[C@@H]1OC(CO)C(O)C(O)[C@H]1OC2=O (some centres not stated)
19	O=C1Cc2c([nH]c3ccc([N+](=O)[O-])cc23)-c2ccccc2N1
20	Cn1c(=O)c2c(ncn2CCO)n(C)c1=O

Compound	16	17	18	19	20
D2 agonist	4.6	-4.5	-4.2	-1.5	-0.9
PINK1 expr mod	0.9%	1.8%	0.6%	8.6%	3.3%&1.1%
D2 PAM	0	-9	-4	-17	-6
TRPML1 ag	-1.1	-0.5	0.4	0.8	0.4
TRPML1 blocker	.	17	-9	42	-14
Six1-Eya2 blk	?	4	6	-7	3

21	Cc1cccc2nc(-c3ccccn3)c(Nc3ccccc3)n12
22	COc1cc2nc(N3CCN(C(=O)[C@H]4COc5ccccc5O4)CC3)nc(N)c2cc1OC
23	COc1ccc(CN2CCN(C(c3ccc(F)cc3)c3ccc(F)cc3)CC2)c(OC)c1OC
24	O=C(O)/C=C/c1ccc(O)cc1
25	O=C(Nc1ccc(C(=O)O)c(O)c1)c1ccccc1

Compound	21	22	23	24	25
D2 agonist	.	-5.0	-1.9	-4.8	-1.6
PINK1 expr mod	?	9.3%	?	-0.7%	-1.2%
D2 PAM	.	11	-15	-32	-12
TRPML1 ag	-0.1	-0.7	0.2	.	1.0
TRPML1 blocker	-4	-5	2	.	20
Six1-Eya2 blk	.	-8	-5	10	7

26	CCC(Sc1nc2ccccc2c2nc(CCn3cncc3C)nn12)C(=O)Nc1cccc(OC)c1 (configuration not stated)
27	Cc1ccc(NC(=O)Cn2c(=O)n(CCC(=O)N3CCc4ccccc4C3)c(=O)c3ccccc32)c(C)c1
28	COc1cc([C@H]2Oc3cc([C@H]4Oc5cc(O)cc(O)c5C(=O)[C@@H]4O)ccc3O[C@@H]2CO)ccc1O
29	CCOc1ccc(NC(=O)Cn2cc(C(=O)c3cccs3)c3ccccc32)cc1
30	COc1ccc(/C=N/NC(=O)c2ccncc2)cc1OC

Compound	26	27	28	29	30
D2 agonist	.	.	5.6	.	1.1
PINK1 expr mod	-1.0%	2.8%	4.9%	-0.7%	-3.4%
D2 PAM	.	.	0	.	-5
TRPML1 ag	1.3	0.1	-0.4	3.1	0.1
TRPML1 blocker	-6	13	-1	-10	-15
Six1-Eya2 blk	.	.	-9	.	8

31	C[C@@H]1C[C@H]2[C@@H]3C[C@H](F)C4=CC(=O)C=C[C@]4(C)[C@@]3(F)[C@@H](O)C[C@]2(C)[C@@]1(O)C(=O)COC(=O)C(C)(C)C
32	O=c1cc(-c2ccc(O)cc2)oc2cc(O[C@@H]3O[C@H](CO)[C@@H](O)[C@H](O)[C@H]3O[C@@H]3OC[C@](O)(CO)[C@H]3O)cc(O)c12
33	CN(C)CCOc1ccccc1Cc1ccccc1
34	CC(=O)Nc1ccc(O)cc1
35	CC(C)(CO)C(O)C(=O)NCCCO (configuration not stated)

Compound	31	32	33	34	35
D2 agonist	-5.5	-3.3	-4.2	-3.8	-2.9
PINK1 expr mod	11%	0.1%	0.2%	-0.6%&1.4%	2.8%
D2 PAM	-4	-7	-25	-27	-4
TRPML1 ag	0.3	-0.8	2.3	-0.5	-0.6
TRPML1 blocker	4	11	18	.	-4
Six1-Eya2 blk	-21	-2	-4	3	3

36	CCOC(=O)NNc1nncc2ccccc12
37	NNC(=O)CP(=O)(c1ccccc1)c1ccccc1
38	CCn1cc(C(=O)O)c(=O)c2cc(F)c(N3CCNCC3)nc21
39	CCCCOc1ccc(CC(=O)NO)cc1
40	CC[C@]1(O)C[C@@H]2CN(CCc3c([nH]c4ccccc34)[C@@](C(=O)OC)(c3cc4c(cc3OC)N(C)[C@H]3[C@@](O)(C(=O)OC)[C@H](OC(C)=O)[C@]5(CC)C=CCN6CC[C@]43[C@@H]65)C2)C1

Compound	36	37	38	39	40
D2 agonist	-5.9	7.2	-5.8	7.4	6.1
PINK1 expr mod	-0.3%	1.0%	-0.1%	-0.3%&2.1%	13%
D2 PAM	-6	0	4	-2	-9
TRPML1 ag	-0.4	-0.5	-0.2	-1.0&-0.8	0.1
TRPML1 blocker	-5	-6	4	-7	-3
Six1-Eya2 blk	2	9	0	2	9

5 entries from above, with two lines to a compound.
Below each SMILES – D2 agonist	PINK1 expr mod	D2 PAM	TRPML1 ag	TRPML1 blocker	Six1-Eya2 blk
[37] NNC(=O)CP(=O)(c1ccccc1)c1ccccc1
 : 7.2	1.0%	0	-0.5	-6	9
[39] CCCCOc1ccc(CC(=O)NO)cc1
 : 7.4	-0.3%&2.1%	-2	-1.0&-0.8	-7	2
[36] CCOC(=O)NNc1nncc2ccccc12
 : -5.9	-0.3%	-6	-0.4	-5	2
[40] CC[C@]1(O)C[C@@H]2CN(CCc3c([nH]c4ccccc34)[C@@](C(=O)OC)(c3cc4c(cc3OC)N(C)[C@H]3[C@@](O)(C(=O)OC)[C@H](OC(C)=O)[C@]5(CC)C=CCN6CC[C@]43[C@@H]65)C2)C1
 : 6.1	13%	-9	0.1	-3	9
[38] CCn1cc(C(=O)O)c(=O)c2cc(F)c(N3CCNCC3)nc21
 : -5.8	-0.1%	4	-0.2	4	0

More structures:
41	Cc1ccccc1Cc1c(C)nc2c(-c3ccccc3)c(C)[nH]n2c1=O
42	COc1ccc(/C=C/C(=O)O)cc1
43	Cc1ccccc1C(=O)Nc1cccc(-c2nc3cccnc3s2)c1
44	Cc1cccc(C)c1NC(=O)C1CCCCN1C (configuration not stated)
45	Cc1[nH]c2ccccc2c1/C=N/NC(N)=S

Compound	41	42	43	44	45
D2 agonist	.	-4.7	.	-7.7	4.1
PINK1 expr mod	4.3%	-0.2%	1.7%	1.5%	2.7%
D2 PAM	.	-35	.	-19	-7
TRPML1 ag	-0.2	.	0.9	0.4	0.4
TRPML1 blocker	-5	.	-2	1	17
Six1-Eya2 blk	.	5	.	9	-16

46	CCCOC(=O)c1ccc(O)cc1
47	Nc1c2c(nc3ccccc13)CCCC2O (configuration not stated)
48	CCCCC1C(=O)N(c2ccccc2)N(c2ccccc2)C1=O
49	COC(=O)C1=CO[C@@H](OC2OC(CO)C(O)C(O)C2O)[C@@H]2[C@@H](C)[C@@H](O)C[C@H]12 (some centres not stated)
50	COc1ccc(CNC(=O)Nc2ccc3c(c2)N(C)C(=O)c2ccccc2S3)cc1OC

Compound	46	47	48	49	50
D2 agonist	-5.0	-4.3	-7.7	-7.7	.
PINK1 expr mod	0.9%	1.9%&-0.4%	3.5%	-0.6%	-0.5%
D2 PAM	0	-8	-6	-25	.
TRPML1 ag	0.9	0.3	-1.0	.	0.7
TRPML1 blocker	28	0	1	.	5
Six1-Eya2 blk	1	3	-2	8	.
